Screening results from PubChem.
NS1 inh – influenza NS1 inhibition; Potency, µM (titrated, usually from 46.1 µM), for the others: at the top dose activity, positive = more growth; 270,000 compounds, 0.4% hits; AID 2326; S. cerevisiae slowed by influenza A NS1, growth recovery by OD600; active means well fitted rising curve with a large enough effect; inconclusive means small, poorly fitted or top-dose-only effect; inactive means no such curve, though single readings can be large or run the other way; further: nearly all actives have a fitted effect of over 50% in size
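Read-out: OD600 growth recovery of NS1-expressing budding yeast. Cells grown overnight at 30C in -URA glucose medium, washed, resuspended and diluted 1:100 in 2% galactose assay medium, pH 6.0. Same strain lacking NS1 served as positive control.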
Cruzain noTriton – inhibitors of Trypanosoma cruzi cruzain without detergent | AID 1476 | purified cruzain, Z-FR-AMC fluorescence, no detergent | 200,000 compounds, 2.3% hits | P25779 | Potency, µM, for inactives: max response, negative = inhibition, actives largely listed as inhibitors;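 further: plate controls were enzyme without inhibitor for no effect and buffer without enzyme for full effect; nearly all actives have a fitted effect of over 40% in size; top concentration of the series not given in the record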
Target sequence (P25779 123-467 limits assumed): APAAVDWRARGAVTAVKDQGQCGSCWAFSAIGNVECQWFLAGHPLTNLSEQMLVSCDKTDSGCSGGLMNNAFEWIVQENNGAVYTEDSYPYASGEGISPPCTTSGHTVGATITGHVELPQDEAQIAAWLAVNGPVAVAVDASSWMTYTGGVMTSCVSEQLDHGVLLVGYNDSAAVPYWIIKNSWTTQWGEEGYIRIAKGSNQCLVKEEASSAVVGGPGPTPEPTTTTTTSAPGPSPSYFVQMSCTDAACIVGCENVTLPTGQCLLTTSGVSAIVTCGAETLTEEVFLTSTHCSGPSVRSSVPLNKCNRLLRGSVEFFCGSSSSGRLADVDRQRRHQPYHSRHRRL
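Purified cruzain at 1.5 nM, pre-incubated 15 min with compound at room temperature in 100 mM sodium acetate pH 5.5, 5 mM DTT, 0.00005% Triton X-100. Reaction started with 2 uM Z-FR-AMC; AMC fluorescence increase over 60 s gives rate.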
MARV entry inh – blocks Marburg virus binding to or entry into cells; 300,000 compounds, 1.8% hits; Marburg virus pseudotyped entry inhibition, cell reporter; control for the full effect not named in the record; about a third of the inactives were read at about 46 µM; Potency, µM (titrated, usually from 37.8 µM), for inactives: at the highest dose activity change, negative = inhibition, actives largely listed as inhibitors; AID 540276; active = well fitted inhibition curve with a large enough effect; inconclusive = small, poorly fitted or top-dose-only effect, or effect the other way; inactive = flat fitted curve, though single readings scatter; tested in HEK293 cells; about a fifth of its hits are not listed in these tables; further: on the % scale 0 is the no-effect control and ±100 the full control effect; luciferase read-out
Lassa entry inh – Lassa virus entry inhibition; Lassa virus pseudotype entry inhibition, cell reporter; control for the full effect not named in the record; Potency, µM (highest dose often 37.9 µM), without a hit: at the top dose activity change, negative = inhibition, actives largely listed as inhibitors; 300,000 compounds, 1.2% hits; AID 540256; active means well fitted inhibition curve with a large enough effect; inconclusive means small, poorly fitted or top-dose-only effect, or effect the other way; inactive means flat fitted curve, though single readings scatter; tested in HEK293 cells; further: on the % scale 0 is the no-effect control and ±100 the full control effect; nearly all actives have a fitted effect of over 50% in size; luciferase read-out
Cruzain inh Det – cruzain (T. cruzi) inhibition with detergent; AID 1478; P25779; 200,000 compounds, 0.43% hits; purified cruzain, Z-FR-AMC fluorescence, 0.01% Triton; Potency, µM, for the others: max response, negative = inhibition, hits mostly inhibitors;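 further: plate controls were neutral wells for no effect and buffer without enzyme for full effect; nearly all actives have a fitted effect of over 40% in size; top concentration of the series not given in the record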
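Read-out: AMC fluorescence (360 nm excitation, 450 nm emission), four reads over 2 min, first-to-third difference used. Conditions: cruzain 1.5 nM, Z-FR-AMC 2 uM, pH 5.5 acetate, 5 mM DTT, 0.01% Triton X-100.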
SARS PLpro yeast – blocks SARS-CoV papain-like protease in a yeast assay | S. cerevisiae expressing SARS-CoV PLpro, growth rescue; control for the full effect not named in the record | Potency, µM (doses to about 32.9 µM), inactives show top-dose activity, positive = growth rescue | 330,000 compounds, 0.19% hits | AID 485353; active means well fitted rising curve with a large enough effect; inconclusive means small, poorly fitted or top-dose-only effect; inactive means no such curve, though single readings can be large or run the other way; further: 0% is about no effect; nearly all actives have a fitted effect of over 55% in size; growth read by luminescence after 48 h
RE007 growth inh – less growth of the S. pombe RE007 Vpr strain. S. pombe RE007 Vpr strain, BacTiter-Glo ATP luminescence, 24 h; control for the full effect not named in the record. Potency, µM (highest dose often 92.2 µM), without a hit: at the highest dose activity change, negative = less growth. 360,000 compounds, 0.21% hits; active = well fitted falling curve with a large enough effect; inconclusive = small, poorly fitted or top-dose-only effect; inactive = no such curve, though single readings can be large or run the other way;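 further: on the % scale 0 is the no-effect control and ±100 the full control effect; nearly all actives have a fitted effect of over 50% in size; the assay follows cell death caused by Vpr and the record does not say whether a fall means rescue or toxicity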
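Fission yeast RE007 carrying one integrated HIV-1 vpr copy, seeded at OD 0.01 in PMG+AL medium with 23 nL pinned compound. Grown 24 h at 30 degrees; viability read by BacTiter-Glo luminescence after 5 min.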
StopGo reporter – FMDV 2A StopGo reporter, luciferase signal. human cells with a luciferase reporter of 2A StopGo recoding; control for the full effect not named in the record. Potency, µM (doses to about 57.9 µM), for inactives: at the top dose signal change, negative = less light. 410,000 compounds, 1.2% hits. AID 1159524; active = well fitted falling curve with a large enough effect; inconclusive = small, poorly fitted or top-dose-only effect; inactive = no such curve, though single readings can be large or run the other way; tested in HEK293T cells; further: on the % scale 0 is the no-effect control and ±100 the full control effect; nearly all actives have a fitted effect of over 45% in size; luciferase light after 4 h
Active calls of the source: *; ? = inconclusive; nt = no result given; & = joins results of further samples; [ ] = another dose, or the depositor's remark. Unless noted, the call rests on the fitted dose curve; in most records, active means well fitted curve in the direction sought with a large enough effect; inconclusive means small, poorly fitted or top-dose-only effect, or another doubt; inactive means no such curve, though single readings can be large; an effect the other way counts as inactive or inconclusive. Potency means the concentration at half of the fitted maximal effect. Rows were taken by chance, and some 4.5% of all compounds hit somewhere here.

Order of results: NS1 inh, Cruzain noTriton, MARV entry inh, Lassa entry inh, Cruzain inh Det, SARS PLpro yeast, RE007 growth inh, StopGo reporter
> C=CCn1c(SCc2ccccc2)nnc1-c1cccnc1
→ -3.2%, 10.1%, 17.8%, -8.8%, 4.2%, -0.6%, -5.1%, 23.8%
> Cc1ccc(C)c(NS(=O)(=O)c2ccc(NC(=O)c3ccco3)cc2)c1
→ -9.5%, -0.1%, -24.9%, ?, -6.0%, ?, 30.7%, 0.0%
> CCOC(=O)CCCNC(=O)COC(=O)c1ccc(O)cc1
→ -0.3%, -3.6%, 0.6%, -3.4%, 0.5%, 4.1%, -1.3%, -16.5%
> O=C(Nc1ccc(F)cc1)c1sc(Cl)nc1-c1ccccc1
→ 10.7%, -24.6%, 10.8%, -2.7%, -4.4%, -9.5%, -13.7%, -13.8%
> O=C(NC1CCS(=O)(=O)C1)c1ccc(Br)o1 (stereo not drawn)
→ -0.1%, nt, -2.1%[46.1 µM], 2.7%, nt, -0.9%, 2.0%, 9.7%
> COc1ccc(/C=C/C(=O)NC2CCCCCCC2)cc1S(=O)(=O)N1CCOCC1
→ -5.1%, ?, ?, 1.9%, -5.7%, -3.2%, 13.8%, 28.9%
> O=C(CC1C(=O)NCCN1Cc1cccc(C(F)(F)F)c1)NCCc1cnccn1 (stereo not drawn)
→ 0.3%, nt, 28.0%, -0.7%, nt, -3.2%, -21.3%, 0.0%
> O=C(NCCC(c1ccccc1)c1ccccc1)c1cccs1
→ -7.6%, 9.3%, -23.3%, ?, -6.1%, -32.8%, 4.9%, -9.3%
> Cc1ccc(-c2nnn(CC(=O)N(c3ccccc3F)C(CC(C)C)C(=O)NCC3CCCO3)n2)cc1 (stereo not drawn)
→ -14.1%, ?, 12.3%, 5.4%, -3.5%, -7.8%, 9.5%[3.69 µM], 1.6%
> Cc1cc(=O)[nH]c(Nc2ccc(C(=O)OC(C)C)cc2)n1
→ -7.6%, -13.0%, 23.8%, ?, -1.3%, -7.4%, 15.8%, -14.4%
> O=C(O)CCCN1C(=O)C2C3c4ccccc4C(c4ccccc43)[C@@H]2C1=O (stereo partly drawn)
→ -1.1%, nt, ?, -15.7%[46.1 µM], nt, 1.1%, -5.2%, -10.7%
> Cc1cccnc1NC(=S)Nc1ccc(F)cc1F
→ -4.0%, nt, 20.1%[14.2 µM], 4.1%, nt, 1.0%, -17.0%, 4.2%
> O=C(c1ccco1)N1CCN(Cc2ccc(Br)cc2)CC1
→ -4.2%, nt, nt, nt, nt, -0.4%, 1.4%, ?
> O=C(Nc1cc2c3c(c1)CC(=O)N3CCC2)c1ccccc1Br
→ nt, nt, 1.9%, -3.8%, nt, -0.5%, 2.8%, 31.4%[activator]
> Cc1ccsc1C(=O)OC(C)C(=O)Nc1ccc(Cl)cn1 (stereo not drawn)
→ nt, nt, ?, -9.0%, nt, -40.3%, -7.3%, 2.4%
> O=C(Nc1ccc2c(c1)OCO2)c1cc2nc(C3CC3)cc(C(F)(F)F)n2n1
→ 13.1%, -5.8%, 13.3%, 2.7%, -0.2%, 2.6%, 11.6%, 5.8%
> COc1ccc(S(=O)(=O)N(C)c2ccc(C(=O)NCCC(C)C)cc2)cc1
→ -123.8%, 8.3%, -3.7%, 8.2µM*, -3.7%, -7.5%, 6.5%, -16.1%
> O=c1cc(CSc2nnc(-c3ccco3)o2)c2ccccc2[nH]1
→ -5.3%, 0.0%, 9.8%, -2.8%, -4.8%, 4.0%, 10.1%, -11.1%
> Cc1cc(=O)n2[nH]c(-c3cccc(Cl)c3)cc2n1
→ 6.4%, nt, nt, nt, nt, 0.4%, 2.2%, 38.1%[activator]
> O=c1[nH]c2ccccc2c2cn(-c3ccccc3)nc12
→ -4.2%, nt, ?, ?, nt, -2.9%, 19.5%, 22.2%
> COC(=O)c1ccc(NC(=O)NC2CCCCC2)cc1
→ 1.1%, -2.0%, 16.7%, 8.7%, -3.4%, 15.5%, 6.7%, 41.1%[activator]
> O=C(NC(Cc1c[nH]c2ccccc12)C(=O)O)c1ccco1 (stereo not drawn)
→ -1.0%, -9.4%, -4.2%, 13.5%, 4.4%, 5.6%, 1.0%, -3.7%
> O=C(CSc1n[nH]c(=O)n1C1CC1)c1ccc2c(c1)OCCO2
→ 0.9%, nt, nt, nt, nt, -0.3%, 21.3%, 59.4%[activator]
> COc1ccc(NS(=O)(=O)c2cccc(C(=O)NNC(=O)CNC(=O)c3ccccc3Cl)c2)cc1
→ nt, nt, ?, 5.1%, nt, nt, -2.7%, 6.5%
> COc1ccc(Cl)cc1NC(=O)CN(C)CC(=O)Nc1ccc2c(c1)OCO2
→ nt, nt, -29.3%, -3.2%, nt, 3.0%, -9.1%, -16.1%
> Cc1cccc(C)c1NC(=O)CSc1nnc(C2CCCCC2)o1
→ -15.0%, nt, ?, -22.4%, nt, 4.5%, 4.2%, -8.9%
> CCCn1c(SCC(=O)Nc2cccc(Cl)c2Cl)n[nH]c1=O
→ nt, nt, -16.4%, 2.0%, nt, -2.0%, 9.5%, -20.8%
> Cc1cccc(C(=O)NNC(=O)c2c(O)c3ccccc3n(C)c2=O)c1
→ -45.8%, nt, 13.4%[46.1 µM], 2.6%, nt, -36.9%, 39.8µM*, 18.4%
> CCOc1cc(S(=O)(=O)N2CCCCC2)ccc1F
→ -5.7%, -8.6%, 2.1%, 19.2%, 1.6%, 4.0%, 2.6%, -21.4%
> CN1CCN(C(=S)Nc2ccc([N+](=O)[O-])cc2)CC1
→ 3.8%, -11.2%, 4.7%, 13.4%, 0.0%, -1.3%, -21.9%, 40.2%[activator]
> COc1ccc(Cn2c(=O)c3cccnc3n(CC(=O)Nc3ccc(C)c(F)c3)c2=O)cc1
→ nt, 5.3%, ?, nt, 3.2%, nt, nt, -18.8%
> COc1cccc(-n2ccnc2SCC(=O)Nc2nccs2)c1
→ -5.4%, 8.3%, 5.7%[46.1 µM], 27.9%, 1.0%, 4.9%, 16.7%, -16.5%
> CC(=O)N1CCc2ccc([N+](=O)[O-])cc21
→ nt, nt, -2.3%[46.1 µM], 2.5%[46.1 µM], nt, nt, -7.4%, -7.2%
> CCCN1CCC(=O)N([C@H](CSc2ccc(C)cc2)CC(C)C)CC1
→ -5.2%, nt, nt, nt, nt, 1.2%, 16.2%, 24.3%
> CCOC(=O)c1sc(NC(=O)CCN2C(=O)c3ccccc3C2=O)c(C(=O)OCC)c1C
→ 9.4%, 21.8%, 22.2%, ?, -0.6%, 12.5%, -28.9%, 8.5%
> COc1ccccc1N(CC(O)Cn1c(C)nc2ccccc21)S(=O)(=O)c1ccccc1 (stereo not drawn)
→ 9.1%, -2.7%, ?, -7.4%, -2.9%, -22.2%, -5.8%, -21.0%
> Cc1cc(NC(=O)C(C)C)ncc1NC(=O)CCc1ccccc1
→ -6.5%, -10.6%, -0.4%, -1.3%, 4.9%, 10.7%, 15.7%, 6.9%
> O=C(Cn1cc[n+](CC(=O)c2ccccc2)c1)c1ccccc1
→ ?, -3.3%, -2.5%[46.1 µM], -4.3%, 9.5%, 2.7%, -3.5%, 4.2%
> CCCCOC(=O)n1c(=S)oc2cc(Cl)ccc21
→ -131.4%, 1.7%, -2.9%, 17.4%, -1.3%, -14.9%, ?, -14.0%
> O=C(NCC1CCCO1)C(=O)N/N=C\c1ccc2c(c1)OCO2 (stereo not drawn)
→ 11.8%, nt, 14.5%[46.1 µM], 16.9%[46.1 µM], nt, 1.3%, -5.1%, 12.4%
> CSc1ccc(/C=C2/C(=N)N3N=C(CC(=O)N4CCCC4)SC3=NC2=O)cc1
→ 4.1%, nt, 19.6%[46.1 µM], ?, nt, 5.0%, 13.5%, -2.8%
> CC(C)CN(C(=O)COC(=O)CSc1ccc(Br)cc1)C1CCS(=O)(=O)C1 (stereo not drawn)
→ nt, nt, 0.6%, 2.2%, nt, 0.3%, 2.4%, -21.2%
> O=C(NCC(c1ccco1)N1CCc2ccccc21)C(=O)Nc1ccccc1 (stereo not drawn)
→ nt, nt, ?, -12.8%, nt, 5.1%, 3.7%, -7.2%
> COc1ccc(NC(=O)C(NC(=O)OC(C)(C)C)C(C)OCc2ccccc2)cc1 (stereo not drawn)
→ 5.5%, -24.4%, -0.3%, -12.0%, 4.8%, -4.0%, 5.8%, 9.6%
> OCc1nc2ccccc2n1/N=C/c1cccs1
→ -3.3%, nt, 10.6%[46.1 µM], 9.0%, nt, -0.2%, -2.4%, -15.0%
> COc1cccc(/C=C2\CC(C)Cc3c2nc2ccccc2c3C(=O)O)c1OC (stereo not drawn)
→ 14.2%, nt, -5.2%[46.1 µM], 14.5%, nt, -0.3%, 25.8%, 12.5%
> COc1ccccc1C(=O)Nc1cc(C)c(OCC(=O)N2CCOCC2)c(C)c1
→ -7.6%, nt, 11.6%, 21.2%, nt, -1.9%, -22.8%, -8.7%
> CSCCC(NC(=O)/C(=C\c1ccco1)NC(=O)c1ccco1)C(=O)O (stereo not drawn)
→ 15.6%, nt, nt, nt, nt, -1.1%, -0.9%, -18.0%
> O=C(c1cc2c(s1)-c1ccccc1OC2)N1CCN(c2ccccc2)CC1
→ -24.2%, ?, 8.4%[46.1 µM], nt, -3.0%&2.6%, 11.0%, 11.0%, 0.5%&-8.6%
> CCCOc1ccc(CCC(=O)N/N=C/c2ccc([N+](=O)[O-])o2)cc1
→ -0.3%, nt, nt, nt, nt, -3.3%, 4.9%, -17.6%
